Bioassay records as filed in PubChem BioAssay.
TRPV1 potentiator: human TRPV1 potentiation; Q8NER1; TRPV1-expressing cells, Fluo-8 calcium influx, capsaicin EC20 potentiation; host cell line not named in the record; control for the full effect not named in the record; potentiation, % at 8.33 µM; 0.02% of 320,000 active; active means potentiation above 80%; inconclusive means 30% to 80%; inactive means below 30%; further: 0% is about no effect
Target sequence (Q8NER1 whole entry, looked up): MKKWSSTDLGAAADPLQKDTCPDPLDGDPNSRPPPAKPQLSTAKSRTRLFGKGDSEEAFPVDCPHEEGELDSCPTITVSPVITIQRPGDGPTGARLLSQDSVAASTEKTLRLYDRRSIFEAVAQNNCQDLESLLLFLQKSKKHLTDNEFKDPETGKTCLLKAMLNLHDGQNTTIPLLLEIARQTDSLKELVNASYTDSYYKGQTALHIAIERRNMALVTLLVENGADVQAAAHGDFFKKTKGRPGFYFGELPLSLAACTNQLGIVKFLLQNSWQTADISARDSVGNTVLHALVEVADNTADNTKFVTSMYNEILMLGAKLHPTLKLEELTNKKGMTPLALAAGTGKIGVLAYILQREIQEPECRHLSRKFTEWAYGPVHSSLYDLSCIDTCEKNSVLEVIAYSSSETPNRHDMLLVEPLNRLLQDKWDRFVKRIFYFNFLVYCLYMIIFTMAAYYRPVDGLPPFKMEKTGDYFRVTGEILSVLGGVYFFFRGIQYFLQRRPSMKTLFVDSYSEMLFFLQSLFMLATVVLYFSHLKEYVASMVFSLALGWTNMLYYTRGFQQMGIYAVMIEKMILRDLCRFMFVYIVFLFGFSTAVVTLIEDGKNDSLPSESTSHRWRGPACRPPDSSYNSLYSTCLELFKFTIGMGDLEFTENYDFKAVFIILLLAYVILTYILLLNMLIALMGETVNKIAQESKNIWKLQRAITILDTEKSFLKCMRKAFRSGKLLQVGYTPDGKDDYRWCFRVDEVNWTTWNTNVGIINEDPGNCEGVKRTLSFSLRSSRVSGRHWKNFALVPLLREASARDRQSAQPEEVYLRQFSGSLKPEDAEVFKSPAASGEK
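TRPV1-expressing cells were cultured overnight at 35.5C and loaded with Fluo-8 calcium dye for 40 to 90 min at room temperature. After a 10 s baseline, compound was added and calcium influx was read kinetically for 3 min (ex 480/em 520 nm).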
TRPML1 agonist: human mucolipin-1 channel agonism; Q9GZU1; TRPML1-expressing cells, Ca2+ dye fluorescence, FDSS; host cell line not named in the record; reference of the full effect not given here; activation, % (concentration not given with the values); 0.12% of 410,000 active; AID 624414; in the data active = activation above about 50%; inconclusive = about 30% to 50%; inactive = below about 30%; further: 0% is about no effect; the text of the record puts the active cut at 80%
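In this qHTS format, compounds were pin-transferred onto Ca8-dye-loaded TRPML1-DL cells induced with Tet overnight, and intracellular Ca2+ fluorescence was recorded kinetically for 110 s after a 10 s baseline. A subsequent 4uM final 54-4 (EC80) addition followed by a second 110 s read served as the antagonist phase.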
Menin MLL FP FL: displaces fluorescein MLL peptide from human menin. FP activity change, % at 61.4 µM. Fluorescence polarization, fluorescein-MLL peptide displacement from menin. 290,000 tested, under 10 active; inconclusive = falling polarisation curve, or a change in total fluorescence; inactive = total fluorescence flat and polarisation flat or rising; no compound was filed as active; the % refers to the polarisation; negative = inhibition;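 further: % of control where 0% means no effect; inhibitors lower the polarisation; unlabelled MLL peptide was the positive control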
PINK1 expr mod: changes PINK1 expression | PINK1 immunofluorescence, high-content cytometry, 24 h | Potency, µM (highest dose often 76.6 µM), for the others: top-dose activation (PINK1 increase), hits mostly activators | 0.2% of 410,000 active; active = well fitted activation curve with a large enough effect; inconclusive = small, poorly fitted or top-dose-only effect; inactive = flat fitted curve, though single readings scatter; cell line not stated here;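 further: potency means the concentration at half of the fitted maximal effect; % of control where 0% means no effect; nearly all actives have a fitted effect of over 65% in size; a mitochondrial uncoupler was the plate control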
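Cells are seeded, rested 12 hours, then given compound at five concentrations or DMSO for 24 hours. After fixation, blocking and antibody staining, PINK1 amount and mitochondrial localization are scored; CCCP serves as control.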
Sfp inh: Sfp phosphopantetheinyl transferase inhibition; Biochemical Sfp PPTase activity, qHTS; Potency, µM, for the others: max response, negative = inhibition, usual class: inhibitors; 3.5% of 310,000 active; AID 1490; active means well fitted inhibition curve with a large enough effect; inconclusive means small, poorly fitted or top-dose-only effect, or another doubt; inactive means no such curve, though single readings can be large or run the other way;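 further: the enzyme is Sfp with the accession as filed and its product quenches rhodamine fluorescence; potency means the concentration at half of the fitted maximal effect; 0% = enzyme reaction without inhibitor and -100% = no enzyme wells; top concentration of the series not given in the record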
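Reaction rates are the 30-min fluorescence difference (ex 525, em 598 nm) in wells containing 15 nM Sfp, 5 uM rhodamine-CoA and 12.5 uM BHQ-2-YbbR at pH 7.6 with 10 mM MgCl2.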
ClpP mod: qHTS Assay for Activators of ClpP; ATP-dependent Clp protease proteolytic subunit (Bacillus subtilis (strain 168)), P80244; purified B. subtilis ClpP, FRET peptide cleavage, 20 min; Potency, µM (doses to about 57.5 µM), without a hit: at the top dose activity change, negative = active; 1.9% of 340,000 active; active = well fitted falling curve with a large enough effect; inconclusive = small, poorly fitted or top-dose-only effect; inactive = no such curve, though single readings can be large or run the other way; further: potency means the concentration at half of the fitted maximal effect; the source files actives as falling curves though it sought activators and does not explain the sign; nearly all actives have a fitted effect of over 65% in size; many hits overshoot -100%
Target sequence (P80244 whole entry, looked up): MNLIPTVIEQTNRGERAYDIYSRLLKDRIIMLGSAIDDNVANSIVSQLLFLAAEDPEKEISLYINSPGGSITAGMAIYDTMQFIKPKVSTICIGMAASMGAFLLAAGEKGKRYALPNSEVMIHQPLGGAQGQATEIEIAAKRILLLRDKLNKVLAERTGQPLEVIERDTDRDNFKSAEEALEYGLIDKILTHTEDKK
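Buffer: 100 mM Tris/HCl pH8, 100 mM KCl, 0.05% low protease BSA, 2.5% glycerol, 0.01% Tween-20. ClpP 10 microg/mL final; 20 min RT; delta FRET normalized to ADEP and DMSO controls.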
TRPML1 blocker: blocks the human TRPML1 channel | Q9GZU1 | TRPML1-inducible cells, Ca2+ dye fluorescence, FDSS; active compounds read low; inhibition of EC80 agonist-evoked calcium signal | activity change, negative = inhibition, % (concentration not given with the values) | 0.02% of 390,000 active; in the data active means activity change below about -50%; inconclusive means about -30% to -50%; inactive means above about -30%;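 further: stimulus is agonist 54-4 at its EC80 concentration; on the % scale 0 is the no-effect control and ±100 the full control effect; the text of the record puts the active cut at -80%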
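Tet-induced TRPML1-DL cells loaded with Ca8 no-wash calcium dye were read kinetically on FDSS. Compound addition was followed by EC80 agonist 54-4 (4 uM final); inhibition was read over 110 s.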
Active calls of the source: *; & = joins results of further samples; [ ] = dose if it differs, or a comment.

For Cc1ccc2cccc(OCc3nnc(SCC(=O)O)n3C)c2n1 the results were TRPV1 potentiator 0.7, TRPML1 agonist 0.0, Menin MLL FP FL -0.4, PINK1 expr mod 2.4%, Sfp inh 7.9% and TRPML1 blocker 3.2.
Screening O=C(NCc1cccnc1)[C@@H]1CC=C[C@@H]2CCN(Cc3ccc(Cl)c(Cl)c3)C(=O)[C@@H]21 returned TRPML1 agonist 0.2&-0.5, PINK1 expr mod 2.2%, ClpP mod 1.1%&2.2% and TRPML1 blocker 9.4.
For COc1ccc(N(C(=O)c2ccco2)C(C(=O)NC2CCCCC2)c2ccccc2)cc1 (configuration not stated) the results were TRPML1 agonist 0.4, PINK1 expr mod 3.0%, ClpP mod 2.3% and TRPML1 blocker 18.3.
For NNC(=O)/C(=C\c1ccc(Br)cc1)NC(=O)c1cccs1 the results were TRPV1 potentiator 8.2, TRPML1 agonist -1.5, Menin MLL FP FL 0.9, PINK1 expr mod -0.3%, Sfp inh 23.7%, ClpP mod -1.8% and TRPML1 blocker 19.9.
Screening CN(C)c1ccc(C(CNS(=O)(=O)c2ccc(Cl)cc2)N2CCCC2)cc1 (configuration not stated) returned TRPML1 agonist 0.7, PINK1 expr mod -2.2%, ClpP mod -3.1% and TRPML1 blocker -16.3.
`O=C(NCCSCc1ccccc1)c1ccccc1` gave TRPV1 potentiator -17.4, TRPML1 agonist 1.0, PINK1 expr mod -0.4%, Sfp inh -20.3%, ClpP mod 0.5% and TRPML1 blocker -29.2.
For Cc1ccc(-c2cc(C(F)(F)F)n3ncc(C(=O)O)c3n2)cc1 the results were TRPV1 potentiator -5.0, TRPML1 agonist -0.5, Menin MLL FP FL 3.1, PINK1 expr mod -1.0%, Sfp inh 7.3%, ClpP mod -2.8% and TRPML1 blocker 7.7.
`CC(=O)Nc1ccc(S(=O)(=O)Nc2ccc(Cl)cn2)cc1` gave TRPV1 potentiator 5.3, TRPML1 agonist -0.3, Menin MLL FP FL -2.8, PINK1 expr mod -0.1%, Sfp inh 12.5%, ClpP mod 1.0% and TRPML1 blocker 13.9.
CNS(=O)(=O)c1cccc(C(=O)OCC(=O)Nc2ccc(Cl)cn2)c1 was read as TRPV1 potentiator -2.3, TRPML1 agonist 0.2, Menin MLL FP FL 1.5, PINK1 expr mod 0.4%, Sfp inh 7.0% and TRPML1 blocker 16.1.
Screening COC(=O)c1ccc(NC(=O)CC2C(=O)N(c3ccccc3)C(=O)N2Cc2ccco2)cc1 (configuration not stated) returned TRPML1 agonist 0.9, PINK1 expr mod 2.1%, ClpP mod 2.4% and TRPML1 blocker -2.9.
For CCN(Cc1ccncc1)C(=S)Nc1ccccc1 the results were TRPV1 potentiator inconclusive, TRPML1 agonist -0.4, Menin MLL FP FL 6.7, PINK1 expr mod -1.0%, Sfp inh 13.6% and TRPML1 blocker 7.2.
Cc1c(C(=O)OC(C)C)[nH]c2c1C(=O)CCC2 was read as TRPV1 potentiator -27.6, TRPML1 agonist 0.0, Menin MLL FP FL -3.5, Sfp inh 2.3%, ClpP mod -0.5% and TRPML1 blocker -22.4.
Screening CCNC(=O)c1cccc(NC(=O)CC2SC(N3CCCCC3)=NC2=O)c1 (configuration not stated) returned TRPV1 potentiator -5.9, TRPML1 agonist 0.4, PINK1 expr mod 3.9%, ClpP mod -2.9% and TRPML1 blocker 15.2.
For COc1ccc(-c2cc(C)no2)cc1S(=O)(=O)N1CCN(c2ccc(C(C)=O)cc2)CC1 the results were TRPML1 agonist 0.2, PINK1 expr mod 1.8%, ClpP mod -5.3% and TRPML1 blocker 4.0.
`CCc1cccc(CC)c1NC(=O)c1cc(CN2C(=O)c3ccccc3C2=O)ccc1OC` gave TRPV1 potentiator -11.0, TRPML1 agonist 1.3, Menin MLL FP FL 4.4, PINK1 expr mod 0.5%, Sfp inh 5.0%, ClpP mod -1.4% and TRPML1 blocker 3.0.
For Cc1ccc2cccc(OC(=O)/C=C\c3ccccc3)c2n1 the results were TRPV1 potentiator 2.9, TRPML1 agonist 0.4, Menin MLL FP FL -1.1, PINK1 expr mod 2.0%, Sfp inh 19.1%, ClpP mod 0.3% and TRPML1 blocker -9.5.
Cc1ccc(CSc2ncc(Cl)c(C(=O)Nc3nc4ccc(C)cc4s3)n2)cc1 was read as TRPML1 agonist -0.6, PINK1 expr mod 0.8%, ClpP mod 0.0% and TRPML1 blocker -14.3.
`CCOC(=O)C1=C(C)N=c2s/c(=C\c3ccc(C(=O)O)cc3)c(=O)n2C1c1ccc(F)cc1` (configuration not stated) gave TRPV1 potentiator 7.8, TRPML1 agonist -0.3, Menin MLL FP FL 1.7, PINK1 expr mod -0.8%, Sfp inh inconclusive, ClpP mod -1.9% and TRPML1 blocker -10.1.
Screening CCCCSCc1cc(C(=O)O)oc1C(C)(C)C returned TRPV1 potentiator -2.4, TRPML1 agonist 0.2, Menin MLL FP FL -2.7, PINK1 expr mod 0.1%, Sfp inh 22.0% and TRPML1 blocker -5.0.
For COCc1cc(C)nc(SCC(=O)c2ccc(O)c(O)c2)c1C#N the results were TRPV1 potentiator -4.2, TRPML1 agonist -0.2, Menin MLL FP FL 2.1, PINK1 expr mod 1.3%[38.3 µM], Sfp inh 56.2µM*, ClpP mod 2.3% and TRPML1 blocker -4.0.
Screening CCOc1cc(/C=C/C(=O)Nc2ccc(C(=O)NCCN(CC)CC)cc2)ccc1OCC(C)C returned TRPV1 potentiator 8.2, TRPML1 agonist -0.1, Menin MLL FP FL -2.0, PINK1 expr mod -3.0%, Sfp inh inconclusive, ClpP mod -14.6% and TRPML1 blocker 2.1.
For Cc1cc(C)c(S(=O)(=O)Nc2ccc(O)c(Sc3ncn[nH]3)c2)cc1C the results were TRPV1 potentiator 27.9, TRPML1 agonist 0.0, Menin MLL FP FL 0.1, PINK1 expr mod 5.2%, Sfp inh -25.3%, ClpP mod 0.7% and TRPML1 blocker 14.8.
Screening CCOC(=O)CON1C(=O)C(=O)N(OCC(=O)OCC)C2CCCCC21 (configuration not stated) returned TRPV1 potentiator 8.0, TRPML1 agonist 1.2, Menin MLL FP FL 1.5, PINK1 expr mod -1.2%, Sfp inh 1.9%, ClpP mod -0.6% and TRPML1 blocker -0.2.
Screening CCOC(=O)c1c(C)[nH]c(C)c1S(=O)(=O)N1CCCC(C(=O)N2CCN(c3cccc(Cl)c3)CC2)C1 (configuration not stated) returned TRPML1 agonist 0.4, PINK1 expr mod 0.0%, ClpP mod 1.3% and TRPML1 blocker 37.7.
COc1ccccc1OCCC(=O)OCC(=O)c1[nH]c(C)c(C(C)=O)c1C was read as TRPV1 potentiator 14.5, TRPML1 agonist 0.3, Menin MLL FP FL 0.3, PINK1 expr mod -0.7%, Sfp inh 4.9%, ClpP mod -1.0% and TRPML1 blocker -19.8.
Cc1cccc(NC(=O)c2ccc3[nH]c(C)cc(=O)c3c2)c1 was read as TRPML1 agonist -0.6, PINK1 expr mod 0.1%, ClpP mod 0.5% and TRPML1 blocker -15.1.
For Cc1nc2sc(C(=O)c3ccccc3)c(N)c2c(C)c1C the results were TRPV1 potentiator -0.4, TRPML1 agonist -0.1, Menin MLL FP FL -1.4, PINK1 expr mod 6.0%, Sfp inh -6.2% and TRPML1 blocker 1.6.
For Cn1c(=O)c(=O)n(C)c2cc(N3CCCC3)c(NC(=O)c3ccc(C(C)(C)C)cc3)cc21 the results were TRPML1 agonist 1.4, PINK1 expr mod -0.7%, ClpP mod 35.5µM* and TRPML1 blocker 39.1.
`Cc1ccc(/C=C/C(=O)OCC(=O)NC(C)c2ccccc2)o1` (configuration not stated) gave TRPV1 potentiator 11.9, TRPML1 agonist 4.7, PINK1 expr mod 1.7%, ClpP mod -5.3% and TRPML1 blocker 7.1.
`COc1ccc(C(O)c2nc(-c3ccccc3OC)cs2)cc1` (configuration not stated) gave TRPML1 agonist -0.7, PINK1 expr mod 0.2% and ClpP mod 1.7%.
`CC(C)CN(CC(C)C)S(=O)(=O)N1CCC(C(=O)NCc2ccc(F)cc2)CC1` gave TRPV1 potentiator 6.7, TRPML1 agonist 0.3, Menin MLL FP FL 3.2, PINK1 expr mod -2.0%[38.3 µM], Sfp inh 12.7%, ClpP mod -1.8% and TRPML1 blocker -4.0.
Screening CCOC(=O)c1cnc(SCC(=O)c2ccc(C)cc2)nc1N returned TRPV1 potentiator -6.8, TRPML1 agonist 2.4, Menin MLL FP FL 2.8, PINK1 expr mod 3.2%, Sfp inh 6.3%, ClpP mod -5.3% and TRPML1 blocker 1.6.
`CCOc1ccccc1NC(=O)CN(C)S(=O)(=O)c1cnc[nH]1` gave TRPV1 potentiator 2.8, TRPML1 agonist 0.8, Menin MLL FP FL 2.3, PINK1 expr mod 0.6%, Sfp inh 15.3%, ClpP mod -0.5% and TRPML1 blocker inconclusive.
Cc1cc(C)c2nc(NNC(=O)c3ccc(S(=O)(=O)N4CCCC(C)C4)cc3)sc2c1 (configuration not stated) was read as TRPV1 potentiator -3.7, TRPML1 agonist 0.8, Menin MLL FP FL 3.1, PINK1 expr mod 16.8%, Sfp inh -8.3%, ClpP mod -1.9% and TRPML1 blocker -3.7.
For Cc1ccccc1NC(=O)C1CCCN1S(=O)(=O)c1ccccc1C(F)(F)F (configuration not stated) the results were TRPV1 potentiator 16.7, TRPML1 agonist 0.2, PINK1 expr mod -0.4%, ClpP mod -26.1% and TRPML1 blocker -12.9.
COc1ccc(CCn2c(N3CCOCC3)nc3c2c(=O)[nH]c(=O)n3C)cc1 was read as TRPV1 potentiator -8.2, TRPML1 agonist 0.2, Menin MLL FP FL 2.2, PINK1 expr mod 5.9%[38.3 µM], Sfp inh 1.6%, ClpP mod -2.1% and TRPML1 blocker 0.2.
`Cc1ccccc1NS(=O)(=O)c1ccc(C)c(C(N)=O)c1` gave TRPV1 potentiator 0.9, TRPML1 agonist -0.5, Menin MLL FP FL 8.5, Sfp inh 18.6%, ClpP mod -6.2% and TRPML1 blocker -14.2.
`CC(C)Oc1ccc(CNC(=S)Nc2ccccc2)cc1Cl` gave TRPV1 potentiator 19.2, TRPML1 agonist -1.4, Menin MLL FP FL -3.1, PINK1 expr mod 2.1%, Sfp inh 0.2%, ClpP mod -1.3% and TRPML1 blocker 1.7.
